# Bioassay records deposited in PubChem by ICCB-Longwood Screening Facility, Harvard Medical School.
# PV pol inh = inhibitors of poliovirus RNA polymerase binding and polymerization; P03300; poliovirus polymerase elongation, fluorescence polarization; hits give low values; % elongation, % (compound at 16.7 µg/mL); 150,000 tested, 0.66% active; AID 588519; in the data active means % elongation below about 90%; further: some results filed as inactive read as strong as hits
# Target sequence (P03300 1749-2209 limits assumed): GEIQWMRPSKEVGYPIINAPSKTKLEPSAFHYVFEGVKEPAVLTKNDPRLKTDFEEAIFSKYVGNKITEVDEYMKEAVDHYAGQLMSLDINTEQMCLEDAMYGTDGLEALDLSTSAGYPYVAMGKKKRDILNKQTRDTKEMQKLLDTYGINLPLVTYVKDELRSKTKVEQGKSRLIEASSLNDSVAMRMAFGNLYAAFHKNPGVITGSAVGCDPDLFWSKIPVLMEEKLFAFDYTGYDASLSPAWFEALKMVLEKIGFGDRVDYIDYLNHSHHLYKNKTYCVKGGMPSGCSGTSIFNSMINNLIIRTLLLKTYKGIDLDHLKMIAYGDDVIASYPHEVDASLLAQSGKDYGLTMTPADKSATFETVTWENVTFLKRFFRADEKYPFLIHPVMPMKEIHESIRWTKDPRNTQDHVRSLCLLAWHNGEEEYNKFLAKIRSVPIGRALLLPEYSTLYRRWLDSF
# PV pol inh intensity = recorded beside PV pol inh, whose call it bears; % elongation; measured here: total intensity read-out; formula for this scale not given here;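 total fluorescence in place of polarization; lower means less elongation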
# * hit, by the source's call. A portion of the library (hit frequency here may not be typical).
1. COc1cccc(-c2nc(S(=O)(=O)c3ccccc3)c(NCc3ccccc3)o2)c1
2. COc1cccc(C(=O)Nc2ccc(C(=O)OCc3cc(=O)n4cc(C)sc4n3)cc2)c1
3. COc1ccccc1NC(=O)Cn1cc(C(=O)c2ccncc2)c(=O)c2cc(C)ccc21
4. CCOC(=O)c1cc(OC(=O)c2cc(OC)cc(OC)c2)n(-c2ccccc2)n1
5. Cc1cccc(C(=O)NC2(C(F)(F)F)N=C(c3ccccc3)N(C3CCCCC3)C2=O)c1 (configuration not stated)

Compound,1,2,3,4,5
PV pol inh intensity,106,107,101,106,110
PV pol inh,106,101,99,107,109

# Complete entries from above. Values in the order: PV pol inh intensity | PV pol inh
# `CCOC(=O)c1cc(OC(=O)c2cc(OC)cc(OC)c2)n(-c2ccccc2)n1` as listed: 106 | 107
# `COc1ccccc1NC(=O)Cn1cc(C(=O)c2ccncc2)c(=O)c2cc(C)ccc21` as listed: 101 | 99
# `Cc1cccc(C(=O)NC2(C(F)(F)F)N=C(c3ccccc3)N(C3CCCCC3)C2=O)c1` (configuration not stated) as listed: 110 | 109

# Next section
6. Cc1ccc(Cl)cc1N1CCN(C(=O)CN2C(=O)COc3ccc(S(=O)(=O)N4CCC(C)CC4)cc32)CC1
7. CCOc1ccc(S(=O)(=O)c2c[nH]c3ccccc3c2=O)cc1
8. Cc1ccc(NC(=O)CCN2C(=O)c3ccccc3Sc3ncccc32)cc1
9. COc1ccc(Br)cc1CNC(=O)c1nn(-c2ccc(C)cc2)c(=O)c2c1c1ccccc1n2C
10. CCOC(=O)c1c(C)[nH]c(CCC(=O)Nc2c(Cl)cc(OC)cc2OC)c1C

Compound,6,7,8,9,10
PV pol inh intensity,101,100,109,100,110
PV pol inh,101,101,109,101,108

# Look-ups from above:
# no. 9 | PV pol inh intensity = 100
# no. 10 | PV pol inh intensity = 110

# Next part:
11. CCc1ccc(C2c3c(-c4ccccc4O)n[nH]c3C(=O)N2Cc2ccncc2)cc1 (configuration not stated)
12. COC(=O)c1ccc(NC(=O)CC2Nc3cc(C)c(C)cc3NC2=O)cc1 (configuration not stated)
13. CCc1ccc(Sc2cc(C(=O)NCCCOC(C)C)c3ccccc3n2)cc1
14. CCOC(=O)c1c(NC(C)=O)c2c3c(sc2n1Cc1cccc(Cl)c1)CCCC3
15. COc1ccccc1N(CC(=O)NCCSCc1ccccc1Cl)S(C)(=O)=O

Compound,11,12,13,14,15
PV pol inh intensity,98,112,102,113,108
PV pol inh,104,107,103,111,107

16. Cc1cccc(C(=O)NCC(c2ccc3c(c2)OCO3)N2CCN(c3ccccc3F)CC2)c1 (configuration not stated)
17. O=C(Nc1ccc(Cl)cc1)c1cc2c(Cl)nc3ccccc3c2s1
18. CCOC(=O)c1ccc(CN(Cc2ccc(Cl)cc2Cl)S(=O)(=O)c2ccc(F)c(C)c2)cc1
19. CC(C)CC(=O)Nc1ccc(C(=O)OCc2cc(=O)n3nc(C4CCCCC4)sc3n2)cc1
20. CCOc1ccc(N(CC)C(=O)c2cc3c(=O)oc4ccccc4c3s2)cc1

Compound,16,17,18,19,20
PV pol inh intensity,98,106,106,109,106
PV pol inh,99,110,114,111,106

21. COc1ccc(OC)c(-n2nnc3c(sc4nc(C)c(Br)c(C)c43)c2=O)c1
22. CCOCCCn1c(=N)c(S(=O)(=O)c2ccc(Cl)cc2)cc2c(=O)n3cccc(C)c3nc21
23. O=C(Cn1c(=O)n(CCCS(=O)(=O)C2CCCCC2)c(=O)c2ccccc21)Nc1ccccc1C(F)(F)F
24. Cc1cc(F)ccc1NC(=O)CS(=O)(=O)c1cccc2nsnc12
25. CCC1Oc2ccc(Cl)cc2N(CC(=O)NCCc2ccc(Cl)cc2)C1=O (configuration not stated)

Compound,21,22,23,24,25
PV pol inh intensity,107,113,107,108,123
PV pol inh,103,105,105,105,120

26. COc1ccc(-n2c(SC)nc3sc4c(c3c2=O)CCN(C(C)=O)C4)cc1
27. Brc1ccc(-c2csc(-c3nc(-c4ccc(Br)s4)cs3)n2)cc1
28. Cc1cc2c(cc1S(=O)(=O)CCC(=O)N1CCCC(C)C1)OCC(=O)N2 (configuration not stated)
29. Oc1c(C(c2ccccc2)N2CCC3(CC2)OCCO3)sc2nc(-c3ccco3)nn12 (configuration not stated)
30. Cc1cc2n(n1)CCCN2C(=O)Nc1ccccc1F

Compound,26,27,28,29,30
PV pol inh intensity,106,111,109,113,106
PV pol inh,108,110,109,105,103

31. Cc1ccc(NC(=O)CN2C(=O)c3cccnc3Sc3ccccc32)cc1C
32. Cc1ccccc1S(=O)(=O)Cc1ccc(C(=O)N2CCN(c3cccc(Cl)c3)CC2)o1
33. CCC(C)NC(=O)CN1C(=O)COc2ccc(S(=O)(=O)N3CCOCC3)cc21 (configuration not stated)
34. CC(C)OCCCn1c(=O)c2ccccc2n2c(-c3ccccc3)nnc12
35. Cc1ccc(Cl)cc1NC(=O)C1CCCN(S(=O)(=O)c2c(C)noc2/C=C/N(C)C)C1 (configuration not stated)

Compound,31,32,33,34,35
PV pol inh intensity,111,100,105,114,103
PV pol inh,108,101,103,119,103

36. Cc1ccc(OCC(=O)N(Cc2ccc(N(C)C)cc2)CC2CCCO2)cc1C (configuration not stated)
37. COc1ccc(CNC(=O)CN2CCSc3ccccc32)c(OC)c1
38. CCOc1ccc(CCNC(=O)c2ccc(Cn3c(=O)c4cccn4c4cccnc43)cc2)cc1
39. COc1ccccc1NC(=O)CN(C)S(=O)(=O)c1ccc2c(c1)c(=O)n(C)c(=O)n2C
40. COc1ccc(NC(=O)C2=C(C)Nc3ncnn3C2c2ccccn2)cc1 (configuration not stated)

Compound,36,37,38,39,40
PV pol inh intensity,106,98,102,105,108
PV pol inh,111,105,101,103,107

# From compound 39 up to 40, as listed above:
39. COc1ccccc1NC(=O)CN(C)S(=O)(=O)c1ccc2c(c1)c(=O)n(C)c(=O)n2C
40. COc1ccc(NC(=O)C2=C(C)Nc3ncnn3C2c2ccccn2)cc1 (configuration not stated)

Compound,39,40
PV pol inh intensity,105,108
PV pol inh,103,107

# Back to the main list, repeating the 4 entries before the break.
37. COc1ccc(CNC(=O)CN2CCSc3ccccc32)c(OC)c1
38. CCOc1ccc(CCNC(=O)c2ccc(Cn3c(=O)c4cccn4c4cccnc43)cc2)cc1
39. COc1ccccc1NC(=O)CN(C)S(=O)(=O)c1ccc2c(c1)c(=O)n(C)c(=O)n2C
40. COc1ccc(NC(=O)C2=C(C)Nc3ncnn3C2c2ccccn2)cc1 (configuration not stated)
41. O=C(CC1N=C2c3ccccc3N=C(SCC(=O)Nc3ccc(F)cc3)N2C1=O)NCc1ccco1 (configuration not stated)
42. CCN1CCN(c2ncc3c(n2)CC(c2ccccc2O)CC3=O)CC1 (configuration not stated)
43. O=C(Nc1ccc2nc(SCC(=O)N3CCOCC3)sc2c1)c1ccccc1Cl
44. CCCn1c(=O)c2sccc2n2c(CCCC(=O)N3CCN(c4cccc(C)c4C)CC3)nnc12
45. COc1cc2c(cc1OC)C(COc1ccc(F)cc1)N(C(=O)c1ccc(S(=O)(=O)N3CCCC3)cc1)CC2 (configuration not stated)

Compound,37,38,39,40,41,42,43,44,45
PV pol inh intensity,98,102,105,108,105,127,107,111,110
PV pol inh,105,101,103,107,103,109,110,109,108

46. CCC1CCCCN1C(=O)CSc1nc2c([nH]c3ccccc32)c(=O)n1-c1cccc(OC)c1 (configuration not stated)
47. COc1ccc(C(=O)Cn2c(=O)c(-c3cc(C)ccc3NC(C)=O)nc3ccccc32)cc1
48. O=C(CSc1cn(CC(=O)N2CCOCC2)c2ccccc12)Nc1ccccc1C(F)(F)F
49. CCCCc1ccc(Nc2ncnc3c2cnn3-c2ccc(C)cc2)cc1
50. COc1ccc(CNC(=O)Cn2c(=O)c3cccn3c3ccccc32)cc1

Compound,46,47,48,49,50
PV pol inh intensity,110,108,118,108,106
PV pol inh,104,98,120,105,103

51. CC(C)c1ccc(S(=O)(=O)c2cnc(SCC(=O)Nc3ccc(F)cc3F)nc2N)cc1
52. COc1ccc(-c2cn3nc(N4CCCC(C(=O)Nc5cc(C)cc(C)c5)C4)sc3n2)cc1 (configuration not stated)
53. Cc1c(Cl)cccc1-n1nc(C)c2c(C(=O)NCc3ccccc3)cc(C3CC3)nc21
54. CC1CN(C(=O)Nc2ccc(C(=O)NCc3cccc(F)c3)cc2)c2ccccc2S1 (configuration not stated)
55. Cc1cc(C(=O)Nc2c(C)nc3ccccn3c2=O)ccc1[N+](=O)[O-]

Compound,51,52,53,54,55
PV pol inh intensity,115,112,105,106,108
PV pol inh,112,108,105,107,102

56. COc1cc(NC(=O)Cn2c(=O)cc(C)c3c(C)nn(-c4ccc(C)cc4)c32)cc(OC)c1
57. CCOc1ccc(C(=O)c2cn(CC(=O)Nc3ccc4c(c3)OCO4)c3ccc(OCC)cc3c2=O)cc1
58. COc1cccc(CNC(=O)c2nn(-c3ccc(C)cc3)c(=O)c3c2c2ccccc2n3C)c1
59. CCN1CCN(c2cc3c(cc2F)c(=O)c(S(=O)(=O)c2cc(C)cc(C)c2)cn3CC)CC1
60. O=C(NCCc1ccccc1)c1ccc2c(c1)N(Cc1ccc(F)cc1)C(=O)c1ccccc1S2

Compound,56,57,58,59,60
PV pol inh intensity,102,109,101,106,115
PV pol inh,103,108,100,111,108
